# gsp ag: gsp mutant agonism. gsp mutant cells, cAMP HTRF, 30 min; control for the full effect not named in the record. 0.13% of 340,000 active. Potency, µM (top dose mostly 76.9 µM), for the others: at the highest dose activation (cAMP increase), hits mostly activators. AID 624287; active = well fitted activation curve with a large enough effect; inconclusive = small, poorly fitted or top-dose-only effect, or another doubt; inactive = no such curve, though single readings can be large or run the other way; cell line not stated here;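 note: phosphodiesterase inhibitor Ro 20-1724 added with compounds to block cAMP breakdown; potency is the fitted concentration of half-maximal effect; nearly all actives have a fitted effect of over 60% in size; about a fifth of the inactives were tested at one dose only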
#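 Cells stably selected in G418 were plated at 2000/well, grown 16-24 hr, then given compounds in DMSO with the PDE inhibitor […] (300 uM solution added) for 30 min at 37C; cAMP was read by HTRF.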
# D2 ag: activates the human D2 dopamine receptor. DiscoveRx PathHunter D2 beta-arrestin, luminescence, 90 min; 100% = 57 uM dopamine signal. activation, % (no concentration beside the values). 0.084% of 360,000 active. AID 624465; in the data active = activation above about 40%; inconclusive = about 15% to 40%; inactive = below about 15%; note: compound concentration not given in the record; the text of the record calls up to 30% inactive
# Target sequence (P14416 whole entry, looked up): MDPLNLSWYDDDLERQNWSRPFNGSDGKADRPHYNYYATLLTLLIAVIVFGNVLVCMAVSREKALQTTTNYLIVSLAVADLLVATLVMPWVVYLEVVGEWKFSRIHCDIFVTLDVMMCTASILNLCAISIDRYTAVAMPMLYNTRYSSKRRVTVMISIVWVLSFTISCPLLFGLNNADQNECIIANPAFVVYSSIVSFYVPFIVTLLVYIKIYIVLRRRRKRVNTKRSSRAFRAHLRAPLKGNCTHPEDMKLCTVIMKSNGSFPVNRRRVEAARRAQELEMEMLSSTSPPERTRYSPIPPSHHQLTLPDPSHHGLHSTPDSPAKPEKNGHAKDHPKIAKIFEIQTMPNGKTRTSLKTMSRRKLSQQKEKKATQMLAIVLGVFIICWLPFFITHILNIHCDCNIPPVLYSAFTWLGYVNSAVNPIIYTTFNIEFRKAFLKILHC
#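 Agonist mode: compounds alone added to overnight-plated D2 PathHunter cells for 90 min at 37 C, with 57 uM final dopamine (EC100) defining full response. Beta-arrestin recruitment detected by chemiluminescent reagent, read after 1 h at ambient temperature.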
# Sfp PPTase inh: blocks B. subtilis Sfp PPTase activity. Q9F4F7. Biochemical Sfp PPTase activity, qHTS. Potency, µM, inactives show max response, negative = inhibition, most hits filed as inhibitors. 3.5% of 310,000 active; active = well fitted inhibition curve with a large enough effect; inconclusive = small, poorly fitted or top-dose-only effect, or another doubt; inactive = no such curve, though single readings can be large or run the other way;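 note: the enzyme is Sfp with the accession as filed and its product quenches rhodamine fluorescence; potency is the fitted concentration of half-maximal effect; 0% = enzyme reaction without inhibitor and -100% = no enzyme wells; top concentration of the series not given in the record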
#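 Buffer: 50 mM Hepes-Na pH 7.6, 10 mM MgCl2, 0.01% Nonidet P-40, 0.01% BSA. Enzyme 15 nM, pre-exposed to compound 15 min; substrates then added and fluorescence change tracked over 30 min.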
# Menin-MLL FL inh: inhibitors of human menin-MLL interaction, wild-type MLL peptide; Fluorescence polarization, fluorescein-MLL peptide displacement from menin; FP activity change, % at 61.4 µM; 290,000 tested, under 10 active; inconclusive = falling polarisation curve, or a change in total fluorescence; inactive = total fluorescence flat and polarisation flat or rising; no compound was filed as active; the % refers to the polarisation; negative = inhibition;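 note: % of control where 0% means no effect; inhibitors lower the polarisation; unlabelled MLL peptide was the positive control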
# PINK1 modulator: modulators of PINK1 expression; PINK1 immunofluorescence, high-content cytometry, 24 h; 0.2% of 410,000 active; Potency, µM (series often up to 76.6 µM), for the others: at the highest dose activation (PINK1 increase), hits mostly activators; active = well fitted activation curve with a large enough effect; inconclusive = small, poorly fitted or top-dose-only effect; inactive = flat fitted curve, though single readings scatter; cell line not stated here;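 note: potency is the fitted concentration of half-maximal effect; % of control where 0% means no effect; nearly all actives have a fitted effect of over 65% in size; a mitochondrial uncoupler was the plate control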
#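 Measures PINK1 amount and localization on or inside mitochondria by immunofluorescence. Stable cells get compounds at 5 concentrations for 24 hours before fixation and staining; CCCP controls included.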
# gsp antagonist: antagonists of gsp mutant (McCune-Albright syndrome). 0.4% of 340,000 active. gsp-mutant cells, cAMP HTRF, 30 min; control for the full effect not named in the record. Potency, µM (titrated, usually from 76.9 µM), for inactives: at the top dose activity change, negative = inhibition, hits mostly inhibitors; active = falling curve of any shape with a large fitted effect; inconclusive = falling curve, mostly with a smaller effect; inactive = flat or rising curve; cell line not stated here;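 note: intracellular cAMP measured with PDE inhibitor Ro 20-1724 present during compound exposure; potency is the fitted concentration of half-maximal effect; % is set by controls: 0 for no effect and ±100 for the full control effect; nearly all actives have a fitted effect of over 65% in size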
#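 Cells in G418 medium, seeded 16-24 h, 37C; buffer exchange to DPBS + 1 mM CaCl2, 0.5 mM MgCl2, 0.05% BSA; cpds in DMSO + […] (300 uM stock), 30 min 37C; HTRF cAMP detection.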
# ClpP mod: qHTS Assay for Activators of ClpP; purified B. subtilis ClpP, FRET peptide cleavage, 20 min; 1.9% of 340,000 active; Potency, µM (titrated, usually from 57.5 µM), inactives show at the highest dose activity change, negative = active; ATP-dependent Clp protease proteolytic subunit (Bacillus subtilis (strain 168)), P80244; active = well fitted falling curve with a large enough effect; inconclusive = small, poorly fitted or top-dose-only effect; inactive = no such curve, though single readings can be large or run the other way; note: potency is the fitted concentration of half-maximal effect; the source files actives as falling curves though it sought activators and does not explain the sign; nearly all actives have a fitted effect of over 65% in size; many hits overshoot -100%
# Target sequence (P80244 whole entry, looked up): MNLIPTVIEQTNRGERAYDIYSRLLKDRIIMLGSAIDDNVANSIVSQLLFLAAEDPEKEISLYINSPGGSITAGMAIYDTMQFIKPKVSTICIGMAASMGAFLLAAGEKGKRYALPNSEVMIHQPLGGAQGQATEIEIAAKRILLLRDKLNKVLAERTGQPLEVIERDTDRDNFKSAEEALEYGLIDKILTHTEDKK
#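 Buffer: 100 mM Tris/HCl pH8, 100 mM KCl, 0.05% low protease BSA, 2.5% glycerol, 0.01% Tween-20. ClpP 10 microg/mL final; 20 min RT; delta FRET normalized to ADEP and DMSO controls.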
# Numbers without * were called inactive; ? = inconclusive; nt = no result given; [ ] = dose if it differs, or a comment. An unsorted share of the library. About 5.1% of those tested had a hit in this group.
SMILES,gsp ag,D2 ag,Sfp PPTase inh,Menin-MLL FL inh,PINK1 modulator,gsp antagonist,ClpP mod
COc1ccc(OC)c(Nc2nc(NCc3ccco3)c3ccccc3n2)c1,-11%,1.2,?,2.8,?,-24%,nt
Cc1ccc(Cn2nnc3c(=O)[nH]c(C(=O)NCc4ccco4)nc32)cc1,13%,-1.0,2%,-2.2,3.7%[38.3 µM],2%,-0.5%
COc1ccc(NS(=O)(=O)c2cccc(C(=O)N3CCCCCCC3)c2)cc1,10%,1.1,nt,nt,0.8%,-17%,1.2%
O=S(=O)(c1ccccc1)N(Cc1nc(-c2ccccc2)no1)C1CCCCC1,1%,-1.1,-3%,5.7,0.7%,-17%,-3.3%
COc1ccccc1/C=N/n1cnnc1,25%,-0.6,1%,0.7,-0.5%,2%,?
CN(C)c1ccc(CNc2ccc3c(c2)ncn3C)cc1,-6%,2.4,-1%,-0.4,-4.5%[38.3 µM],-10%,33%
Cc1ccc(C(=O)Oc2coc(CSc3nnc(NC(=O)c4cccs4)s3)cc2=O)cc1,?,-1.2,1%,7.7,3.8%,?,-5.8%
CC(C)C[C@H]1CNC(=S)N1CC1CCCN1C[C@H](Cc1ccccc1)N1C[C@H](Cc2ccc(O)cc2)N(CC2CCCCC2)C1=S (stereo partly specified),nt,-5.3,nt,nt,6.5%,-3%,-2.2%
O=S(=O)(c1ccccc1)c1nc(-c2ccco2)oc1NCc1ccccc1,-15%,-0.4,3%,7.2,-3.4%[38.3 µM],-18%,-2.7%
CC(=O)Nc1cccc(OC(=O)N2CCOCC2)c1,-36%,1.2,-8%,2.7,0.9%,10%,-3.9%
CCN(CC(=O)Nc1ccc(OC)cc1)C(=O)c1ccc([N+](=O)[O-])cc1,-34%[15.4 µM],-0.9,-22%,-1.3,1.0%,14%,nt
CCCCSc1nnc(CCNC(=O)OC(C)(C)C)o1,3%[15.4 µM],3.2,7%,-1.2,1.9%,-1%,nt
Cc1ccc(S(=O)(=O)N(C)CC(=O)N2CCC(C(N)=O)CC2)cc1,5%[15.4 µM],-3.4,21%,1.8,0.9%,2%,nt
COc1ccc(C2CC(c3ccccc3)=NN2S(=O)(=O)c2ccc(C)cc2)c(OC)c1 (stereo unspecified),-37%[inhibitor],-1.7,13%,17,-2.0%,1%,-1.2%
CC(=O)CC(C)(C)Nc1nc2ccc([N+](=O)[O-])cc2o1,-26%[15.4 µM],-1.8,13%,-1.1,2.2%,2%,nt
O=C(O)c1ccc2c(=O)n(-c3ccccc3)c(=S)[nH]c2c1,0%[15.4 µM],-2.0,-18%,3.8,0.3%,8%,nt
c1ccc(CSCc2ccccc2)cc1,nt,-3.6,nt,nt,8.5%,7%,1.3%
COc1ccc(S(=O)(=O)N2CCOCC2)cc1NC(=O)/C=C/c1ccccc1,-1%[15.4 µM],-2.7,nt,nt,-0.9%,-9%,nt
Cc1ccc2nsnc2c1S(=O)(=O)N(Cc1ccco1)Cc1cc2ccc(C)c(C)c2[nH]c1=O,-41%[inhibitor],-2.3,-1%,-2.5,11%,0%,-7.3%
CC(C)(C)C1=CC(=Nc2ccccc2N)C=C(C(C)(C)C)C1=O,-31%,-16,22%,-1.0,15%,-4%,12%
Cc1ccc(S(=O)(=O)C(C#N)c2nc3ccccc3nc2N2CCN(C)CC2)cc1 (stereo unspecified),-56%[inhibitor],-3.5,-10%,-5.7,5.6%,-1%,-2.4%
CCc1cc(C(=O)Nc2cc(S(=O)(=O)N3CCOCC3)ccc2N2CCN(CC)CC2)sc1C,-7%,-3.9,nt,nt,-2.2%,-10%,-0.7%
COc1ccc2oc(CS(=O)c3ccccc3)c(C(=O)O)c2c1 (stereo unspecified),?,-1.0,7%,2.8,-1.3%,3%,1.1%
CC(C)(C)S(=O)(=O)N1C[C@H]2CC/C=C\C/C=C\2[C@@H]1CCO,-53%[inhibitor],-6.2,nt,nt,1.8%,nt,1.3%
Cc1ccc(S(=O)(=O)NCCC(=O)N2CCN(C/C=C/c3ccccc3)CC2)cc1,0%,3.2,nt,nt,0.6%,-4%,-0.9%
C[C@H](CO)N1C[C@H](C)[C@@H](CN(C)C(=O)Cc2ccccc2)OCc2cnnn2CCCC1=O,18%,0.9,nt,nt,-0.9%,nt,-1.9%
Cc1ccc(/C=C2\Oc3cc(OC(=O)N4CCOCC4)ccc3C2=O)cc1,3%[15.4 µM],-5.0,17%,-0.7,3.3%,16%,1.1%
O=C(O)c1ccc(C(=O)O)c(C(=O)c2ccc(NC(=O)c3ccccc3)cc2)c1,-11%,-3.5,9%,-1.8,1.4%,10%,1.0%
CCOc1ccc(NC(=S)N2CCN(CCN3C(=O)c4cccc5cccc(c45)C3=O)CC2)cc1,-69%[inhibitor],0.3,-22%,-0.6,2.8%,-5%,-3.5%
CCOC(=O)[C@H]1[C@H]2COc3cc(OC)ccc3[C@@H]2N2C(=O)CN(Cc3ccco3)C(=O)[C@@]12C,nt,0.8,nt,nt,-1.2%,-2%,-5.8%
Nc1nc(/C=C/c2cccnc2)nc(-c2ccccc2O)n1,-4%[15.4 µM],-0.5,11%,1.5,?,-11%,nt
O=C(NCCc1csc(-c2ccc(C(F)(F)F)cc2)n1)c1cccs1,-2%,1.8,8%,2.4,1.1%,?,-11%
Cc1ccc(-n2nnnc2SCC(=O)c2cc(C)n(-c3cc(C)on3)c2C)cc1,?,-0.9,-22%,1.5,11%[38.3 µM],-7%,7.5%
CC(C)CNc1nc(Oc2ccc(=O)n(C)n2)nc(N2CCOCC2)n1,-4%,-0.4,-1%,-0.2,-1.4%,6%,-0.3%
COc1ccc(Cl)cc1S(=O)(=O)NC(C)C(=O)NCc1cccnc1 (stereo unspecified),-3%[15.4 µM],-1.0,5%,-5.2,0.9%,11%,nt
CC(C)c1nnc2n1N=C(c1ccc(Cl)cc1)CS2,1%,-2.6,-4%,-5.7,2.6%,-3%,-3.1%
Cc1c(C(=O)N(CCC#N)c2ccccc2)sc2nc3n(c(=O)c12)CCCC3,?,4.5,15%,3.2,0.0%,-6%,-0.2%
CCOC(=O)c1c(C(C)(C)C)oc2ccc(O)cc12,?,-0.7,18%,3.4,3.7%,-2%,-0.4%
CCCN1C(=O)/C(=C/c2ccc(C)s2)SC1=Nc1ccc(OC)cc1,-24%,-1.7,-4%,8.5,8.7%,-7%,1.1%
COc1cccc(CNc2ccc3c(c2)nc(C)n3C)c1OC,-8%,0.3,5%,-0.9,4.2%,-16%,-13%
COc1ccc(NC(=O)Cn2c(=O)n(CC(=O)NCc3ccco3)c(=O)c3ccccc32)cc1OC,8%,2.0,-21%,-1.2,-0.5%,2%,1.1%
CC(C)CNC(=O)CCCSc1nc2ccccc2[nH]1,-3%,2.7,7%,7.7,0.8%,-2%,-0.4%
Cc1cc(C)nc(NC(=O)c2ccc(Cl)c(Cl)c2)n1,0%,-0.7,11%,-0.8,4.6%,-1%,-1.3%
CC(=O)NC(=S)Nc1ccc([N+](=O)[O-])cc1C,10%,-7.2,-7%,-1.0,-0.1%,5%,1.5%
Cc1ccc(S(=O)(=O)NCC(=O)OC(C)C(=O)Nc2ncc(Cl)cc2Cl)cc1 (stereo unspecified),-26%,1.0,6%,-0.2,?,-17%,-2.1%
CCOC(=O)C1=C[C@@H](C(C)(C)C)N(S(=O)(=O)c2ccc(C)cc2)[C@H]1c1cccc2ccccc12,nt,-3.0,nt,nt,1.0%,nt,0.5%
O=C(COC(=O)c1c[nH]c(=O)[nH]c1=O)Nc1ccccc1,-4%[15.4 µM],-2.0,25%,-4.7,-0.3%,9%,nt
CCCc1cc2c(cc1NC(=O)Cc1ccccc1)OCO2,17%,1.7,nt,nt,-1.7%,4%,nt
CCCNC(=O)Cc1c(C)oc2ccccc12,0%[15.4 µM],3.1,4%,-2.6,-0.2%,2%,nt
Cc1ccc(C(=O)OCC(=O)Nc2c(C)n(C)n(-c3ccccc3)c2=O)cc1[N+](=O)[O-],28%,9.1,25%,-1.1,2.0%,0%,nt

# The list continues:
SMILES,gsp ag,D2 ag,Sfp PPTase inh,Menin-MLL FL inh,PINK1 modulator,gsp antagonist,ClpP mod
O=C(Nc1ccc(-c2nc3ncccc3o2)cc1)c1ccc([N+](=O)[O-])o1,0%,2.2,-8%,-13,-1.1%,-6%,-8.7%
Cc1ccc(C(=O)NCc2ccc3c(c2)OCO3)cc1Cl,0%[15.4 µM],-0.1,-4%,0.8,-1.2%,3%,0.6%
Cc1nnsc1C(=O)NC1CCCc2c1cnn2-c1ccc(C(C)(C)C)cc1 (stereo unspecified),?,0.2,4%,-2.4,0.5%,?,1.1%
CC1NC(=O)COC1c1ccccc1 (stereo unspecified),-25%,-8.7,nt,nt,2.5%,nt,-0.8%
Cn1c(=O)cc(OCCCC(=O)N2CCN(Cc3ccc4c(c3)OCO4)CC2)c2ccccc21,-34%[inhibitor],-1.7,1%,7.0,nt,-8%,-1.5%
Cc1cc(C)cc(NS(=O)(=O)c2c(C(=O)N3CCCCCC3)c(C)n(C)c2C)c1,-30%,-7.0,11%,4.3,-0.8%,-3%,0.8%
CC(=O)Nc1ccc(N/C=C/C(=O)c2ccccc2)cc1,7%[15.4 µM],4.7,-3%,5.7,-1.6%,-16%,-21%
CC(C)CC(=O)Nc1ccc(C(=O)CN2CCC(C)CC2)cc1,-14%[15.4 µM],-2.0,?,2.6,-0.7%,8%,1.8%
Fc1cccc(Cl)c1CSc1nnc2ccccn12,5%[15.4 µM],3.5,11%,1.9,0.7%,nt,nt
COc1ccc(N(CC(=O)NC2CCCCC2C)S(=O)(=O)c2c(C)nn(C)c2C)cc1 (stereo unspecified),-58%[inhibitor],0.3,5%,-3.1,1.0%,-3%,0.0%
O=C(COCc1ccccc1)N[C@@H]1c2ccccc2CC[C@@H]1OCc1ccccc1,nt,-1.0,nt,nt,?,-8%,-2.1%
CCOC(=O)N1CCN(S(=O)(=O)c2ccc(OCC)c(C)c2)CC1,-12%,-0.9,-8%,-0.1,0.6%,0%,-1.9%

# Source: PubChem (National Center for Advancing Translational Sciences (NCATS))
